Insulin prom inh: TRM-6 insulin promoter activity inhibition | actives 0.9% (n = 130,000) | TRM-6 cells (human fetal islet line), insulin promoter-eGFP reporter, imaging; reporter expression induced with tamoxifen | inhibition, % at 2 µM;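 active = inhibition above the mean plus 3 SD, with well images judged a real hit on visual review, cut at about 60% in these data, passing the limit was not always enough; inconclusive = inhibition over the cutoff but images rejected on review; inactive = inhibition not above the cutoff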
RGS16-Gao HTS: regulators of human RGS16-Galphao interaction; O15492+P09471; bead-based flow cytometry RGS16-Galphao binding, fluorescence; actives lie on both sides; binding response (% of control), % at 10 µM; actives 0.38% (n = 220,000); AID 1441;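 active = below 25% or above 175%, edge rows of some plates excepted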;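 note: Galphao activated by GDP with aluminum fluoride before binding; 100% = wells without compound and 0% = beads without RGS; some results beyond the cut were filed as inactive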
Target sequence (O15492 whole entry, looked up): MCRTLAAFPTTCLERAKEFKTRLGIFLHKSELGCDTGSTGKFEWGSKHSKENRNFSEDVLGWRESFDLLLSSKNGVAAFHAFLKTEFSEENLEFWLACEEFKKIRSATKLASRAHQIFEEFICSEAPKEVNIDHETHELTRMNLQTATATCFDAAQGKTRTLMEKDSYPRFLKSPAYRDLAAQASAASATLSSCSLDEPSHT
Target sequence (P09471 whole entry, looked up): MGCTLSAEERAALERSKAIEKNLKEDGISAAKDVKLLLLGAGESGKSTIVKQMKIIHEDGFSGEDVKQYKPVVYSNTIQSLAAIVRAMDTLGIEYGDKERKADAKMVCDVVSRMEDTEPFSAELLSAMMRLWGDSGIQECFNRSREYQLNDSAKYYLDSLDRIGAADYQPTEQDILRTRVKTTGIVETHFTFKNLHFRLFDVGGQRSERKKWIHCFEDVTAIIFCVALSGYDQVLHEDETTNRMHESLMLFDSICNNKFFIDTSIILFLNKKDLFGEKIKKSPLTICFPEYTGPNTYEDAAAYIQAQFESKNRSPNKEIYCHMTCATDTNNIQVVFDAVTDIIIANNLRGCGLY
HSV replic up: increases HSV replication in cells. HSV replication augmentation in cells, fold increase. maximum fold increase. actives 0.005% (n = 220,000);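 active = peak rise of 1.5-fold or more in the series; inconclusive = self-fluorescent or not available for retest; tested in PC3 cells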;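 note: first round at 10 µM; read as green reporter fluorescence; hits show the peak of a series up to 25 µM; 1 = signal of infected wells without compound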
GALR2 ag: agonists of human galanin receptor 2 (GALR2). GALR2-expressing cells, agonist activation read-out. O43603. actives 0.48% (n = 140,000). AID 803. activation, %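 (tested at 5 µM)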;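 active = above mean plus 3 SD of all compounds, about 5% in these data, not always enough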;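 note: 0% = vehicle buffer wells and 100% = reference agonist at full effect; tested in CHO reporter cells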
Target sequence (O43603 whole entry, looked up): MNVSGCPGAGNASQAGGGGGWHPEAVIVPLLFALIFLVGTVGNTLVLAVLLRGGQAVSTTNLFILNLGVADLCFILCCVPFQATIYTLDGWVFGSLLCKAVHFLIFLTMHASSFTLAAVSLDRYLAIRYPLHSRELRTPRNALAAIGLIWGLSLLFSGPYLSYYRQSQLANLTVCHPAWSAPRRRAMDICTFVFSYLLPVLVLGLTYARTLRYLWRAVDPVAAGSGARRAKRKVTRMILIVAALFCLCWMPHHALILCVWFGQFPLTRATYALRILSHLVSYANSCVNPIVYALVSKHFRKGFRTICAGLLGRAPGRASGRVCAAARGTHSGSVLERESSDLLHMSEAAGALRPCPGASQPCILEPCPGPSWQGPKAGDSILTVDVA
PKD1 kinase inh: blocks activity of human protein kinase D1. Q15139. PKD1 kinase fluorescence polarization assay. inhibition, %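 (about 10 µM by stock and volumes)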. actives 0.056% (n = 200,000);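 active = inhibition of 50% or more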;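 note: controls were vehicle for no effect and a reference inhibitor for full effect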
Insulin prom inh cell count: also measured in Insulin prom inh; calls as there; normalized cell count, %; measured here: cell count, toxicity; reference of the scale not given here;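 cells exposed to compound for 48 h; stained nuclei by imaging scaled within each plate; lower means fewer cells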
HSV replic up primary fold: second read-out of HSV replic up, no call of its own (marks repeat the call); fold increase; compound at 10 µM; measured here: primary screen fold increase 10 uM; tested in PC3 cells;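 GFP signal in the first replicate; 1 = infected wells without compound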
An asterisk follows results filed as active; i = inactive; ? = inconclusive; · = no result given.

mol,Insulin prom inh,Insulin prom inh cell count,RGS16-Gao HTS,HSV replic up,HSV replic up primary fold,GALR2 ag,PKD1 kinase inh
CCCCC(=O)Nc1ccc(C(=O)N2CCC(C(=O)OCC)CC2)cc1,14,178,138,i,0.91,-1.3,2
Cc1cc(Cl)ccc1NC(=O)CN1CCC(C(O)(c2ccccc2)c2ccccc2)CC1,-12,108,102,i,0.79,0.9,-7
CC(C)(C)C(=O)NC1CCN(S(=O)(=O)c2ccc(C(F)(F)F)cc2)CC1,-17,73,103,i,0.86,-1.1,-5
O=C(Nc1ccc(N2CCCCC2)c(Cl)c1)c1ccc(N2CCOCC2)c([N+](=O)[O-])c1,17,134,135,i,0.69,-2.1,-5
O=C(Cc1ccccc1)NNC(=O)C1CCCC1,36,61,100,·,·,·,-7
Cc1sc2nc(COC(=O)c3cccc(S(=O)(=O)N(C)c4ccccc4)c3)[nH]c(=O)c2c1C,-165,75,100,?,·,·,1
CCOC(=O)N1CCC(N(CCN(C)C)C(=S)Nc2ccc(F)c(Cl)c2)CC1,50,117,101,i,0.85,·,-1
CCC(=O)Nc1cccc(NC(C)=O)c1,26,113,96,·,·,-0.2,3
CCn1c(SCC(=O)N/N=C/C=C/c2ccco2)nnc1-c1ccccc1,27,64,157,i,1.1,-1.4,9
Clc1cccc(Cl)c1CON/C=N/c1ncnc2sccc12,17,117,98,i,1.1,-0.7,-4
COc1cc(/C=C/C(=O)Nc2nc3ccc(S(=O)(=O)N(C)C)cc3s2)cc(OC)c1OC,37,74,97,i,0.89,2.0,8
C[C@]12CCC(O)CC1CCC1C2CC[C@]2(C)C(c3cc(C(F)(F)F)n[nH]3)CCC12 (stereo partly specified),·,·,99,i,0.74,·,·
N#Cc1c(N2C(=O)C3C4C=CC(C4)C3C2=O)sc2c1CCC2 (stereo unspecified),-30,61,102,i,0.81,-1.4,-6
CC(OC(=O)c1ccc(S(=O)(=O)N(C)c2ccccc2)cc1)C(=O)NCCC1=CCCCC1 (stereo unspecified),-9,110,44,i,1.1,-0.7,1
C/C(=N/OC(=O)c1c(-c2c(Cl)cccc2Cl)noc1C)c1cnccn1,·,·,101,i,1.1,·,-5
CC(Oc1ccc(Cl)cc1Cl)c1nc(-c2ccc(NC(=O)c3ccncc3)cc2)no1 (stereo unspecified),23,107,101,i,0.86,-2.6,13
CCOC(=O)c1ccc(NC(=O)N2CCCCC2)cc1,35,123,108,i,0.96,-1.9,0
CCC(CC)C(=O)NCCNC(=O)C(CC)CC,55,136,108,i,1,-1.4,-7
CC(Sc1nnnn1C)C(=O)NC(=O)NC1CCCCC1 (stereo unspecified),·,·,103,i,0.93,·,-8
O=C1NN(c2ccc(Cl)cc2)C(=O)/C1=C\c1ccc(-c2cccc(C(=O)O)c2)o1,-40,98,103,i,0.99,·,-10

More results
mol,Insulin prom inh,Insulin prom inh cell count,RGS16-Gao HTS,HSV replic up,HSV replic up primary fold,GALR2 ag,PKD1 kinase inh
CCOC(=O)C(NC(C)=O)C(=O)Nc1ccc(C(C)C)cc1 (stereo unspecified),·,·,102,i,1,·,-2
Cc1cc(C(=O)N2CCN(S(C)(=O)=O)CC2)cs1,23,119,101,i,0.96,-0.8,-7
COc1cc(C(=O)NCC2CCCO2)cc(OC)c1OC (stereo unspecified),i,42,97,i,0.86,-0.6,-8
Cc1ccc(COc2ccsc2C(=O)NNC(N)=S)cc1,·,·,96,i,1,·,-13
CC1=Nn2c(nnc2-c2ccc(F)cc2)SC1,-54,94,105,i,0.67,-0.3,-6
O=C(C1CCN(S(=O)(=O)c2cnc[nH]2)CC1)N1CCN(Cc2ccc3c(c2)OCO3)CC1,·,·,103,i,0.85,0.0,0
Nc1c(N=Nc2cccc(Cl)c2)c(=O)[nH]n1-c1ccccc1,·,·,98,i,0.9,-1.3,2
O=C(Cc1ccccc1F)Nc1nc(-c2cccnc2)cs1,·,·,101,i,0.81,·,2
CCOC(=O)c1cn(CC(=O)Nc2ccc3c(c2)OCCO3)nn1,55,135,98,i,1.1,-0.9,2
CN1CCC(=NNc2ccc(S(=O)(=O)N3CCOCC3)cc2[N+](=O)[O-])CC1,31,117,103,i,0.86,0.1,-3
N/C(=N\OC(=O)CC1CCCCC1)c1ccccc1,30,82,106,i,0.91,0.4,1
CC#CCc1cc2ccccc2c(=O)o1,·,·,103,i,1,·,·
CCC(=O)N(Cc1cc2cccc(C)c2[nH]c1=O)c1ccccc1OC,-3,88,95,i,0.93,-2.8,-7
Cn1c(SCC(=O)NCc2ccco2)nnc1-c1c[nH]c2ccccc12,·,·,104,i,0.93,-1.4,-8
N#Cc1cc2c(nc1SCC(=O)Nc1sc3c(c1C#N)CCC3)CCCCCC2,20,34,101,i,1.1,-0.3,-4
COC(=O)c1[nH]c2ccc(Cl)cc2c1NC(=O)c1ccccc1[N+](=O)[O-],·,·,104,i,1.1,0.0,-6
C[C@@H](C(=O)NCc1ccccc1)[C@H]1C[C@]1(C)[C@H](NC(=O)OCc1ccccc1)c1ccccc1,-15,153,82,i,0.98,-2.7,-1
COc1ccc(C2CC(=O)n3c(nc4ccccc43)S2)cc1OC (stereo unspecified),-69,40,99,i,0.96,-2.2,6
CCCCCCCCOC1OC(CO)C(O)C(O)C1NC(C)=O (stereo unspecified),23,142,112,i,0.77,-1.3,2
O=C(CSc1nnc(-c2c[nH]c3ccccc23)n1-c1ccc(F)cc1)NCc1ccco1,-75,113,40,i,1.1,-2.1,-3

(further entries)
mol,Insulin prom inh,Insulin prom inh cell count,RGS16-Gao HTS,HSV replic up,HSV replic up primary fold,GALR2 ag,PKD1 kinase inh
CCOc1ccccc1NC(=O)c1ccc(Cl)c(NC(=O)CC(c2ccccc2)c2ccccc2)c1,-58,144,122,i,1.1,-3.7,-1
COc1ccc(CN2CCOCC2)cc1Br,30,77,142,i,1.1,-0.1,7
COc1ccc(-c2csc(Nc3cccnc3)n2)cc1OC,21,205,102,i,0.7,-1.0,-11
O=C1/C(=C/c2ccc([N+](=O)[O-])cc2)C=C(c2ccccc2)N1c1ccc(O)cc1,12,182,85,i,0.65,-2.3,3
CN(C)/C=C/C(=O)c1cccc(Oc2ncccn2)c1,·,·,101,i,0.89,·,4
CCOC(=O)c1c(NC(=O)c2nn(CC)cc2Br)sc(C)c1C,13,84,101,i,0.73,2.2,-9
COCCNC(=O)C(c1cccs1)N(CCc1ccccc1)C(=O)Cn1nnc2ccccc21 (stereo unspecified),-79,96,109,i,0.86,-1.2,0
O=C(NNC(=O)C1CCCO1)c1ccc(Cl)cc1 (stereo unspecified),43,76,100,i,0.83,-0.7,-7
O=C(CN1C(=O)CCC1=O)c1ccc(-c2ccccc2)cc1,·,·,107,i,0.92,-1.0,-5
COc1ccc(-n2c(SCc3ccc(C#N)cc3)nnc2-c2ccccn2)cc1,45,92,95,i,0.93,-2.7,-1
O=C(Cn1cc2c(n1)CCCCC2)Nc1c(F)cc(F)cc1Br,·,·,125,i,1.1,·,·
CCOc1nc(Nc2ccc(OC)c(Cl)c2)nc(OCC)n1,11,81,110,·,·,-0.2,-8
CC(=O)c1c(C)oc(C)c1CSCc1ccc(C(=O)O)o1,·,·,117,i,1,-2.7,-11
COc1ccc(NC(=O)CC2Nc3cc(C)c(C)cc3NC2=O)c([N+](=O)[O-])c1 (stereo unspecified),·,·,109,i,0.65,·,-5
Cc1ccc(C(=O)N/C(=C\c2cccs2)C(=O)NCCCn2ccnc2)cc1,20,96,176,i,0.91,-2.2,-6
O=C(NCc1ccccn1)C1COc2ccccc2O1 (stereo unspecified),-12,97,104,i,0.94,-0.8,4
CCN(CC)C(=O)COc1ccc2oc(-c3ccco3)cc(=O)c2c1,·,·,103,i,0.84,·,-5
CCCCn1nc(NC(=O)c2cccs2)c2cc3cc(OC)ccc3nc21,0,99,95,i,0.83,6.8*,2
COc1ccc2[nH]c(C(=O)NCCc3ccccc3)cc2c1,·,·,101,i,0.92,·,·
O=[N+]([O-])c1c(C(Cl)Cl)nn(-c2ccccc2)c1N1CCCC1,2,108,97,i,0.76,-0.5,3

The listing continues.
mol,Insulin prom inh,Insulin prom inh cell count,RGS16-Gao HTS,HSV replic up,HSV replic up primary fold,GALR2 ag,PKD1 kinase inh
Cc1ccccc1OCC(O)Cn1c(NCc2ccco2)nc2c1c(=O)[nH]c(=O)n2C (stereo unspecified),-7,108,103,i,0.74,-2.8,-3
COc1cccc(CNC(=O)C(=O)NCCc2ccc(OC)c(OC)c2)c1,-8,73,109,i,0.95,-1.4,-3
Cc1ccc(-c2cc3ncc(C#N)c(N)n3n2)cc1,·,·,104,i,0.89,·,7
O=C1N=C(C=c2ccc(=Cc3[nH]c(=O)[nH]c3O)cc2)C(=O)N1,·,·,99,i,0.76,·,·
CCN(CC)CC(=O)c1c[nH]c2ccc(C)cc12,17,72,106,i,0.92,-0.4,-4
CC(=O)c1cccc(NC(=S)NC(=O)CC(C)C)c1,-4,88,100,i,1,-3.1,-5
COc1ccnc(-n2cccc2/C=N/O)c1C#N,·,·,108,i,1.2,·,0
COc1ccc(C(C(=O)NC(C)(C)C)N(Cc2cccs2)C(=O)CCC(=O)Nc2cc(C)on2)cc1 (stereo unspecified),-25,117,111,i,0.99,-2.0,-12
COc1cc(C(=O)NCCc2c[nH]c3ccccc23)ccc1OCc1c(C)noc1C,33,98,108,i,0.88,·,4
CCOC(=O)N1CCN(c2nc3ccccc3nc2C(C#N)C(=O)NCCc2ccccc2)CC1 (stereo unspecified),12,127,54,i,0.98,-1.8,-6
CC1Cc2ccccc2N1Cc1cc(=O)n2ccsc2n1 (stereo unspecified),-8,55,94,i,1.1,-0.9,-3
CC1CCN(S(=O)(=O)c2ccc(N/N=C(/C#N)C(N)=O)cc2)CC1,-23,71,118,i,1.1,-1.3,-3
CN(C)CC1(c2ccccc2)CCCC1,-15,113,100,i,0.96,-0.7,-3
COc1ccc(NC(=O)c2nc[nH]c2C(=O)Nc2ccccc2C)cc1,·,·,100,i,0.69,1.1,0
Cc1nc(NCc2ccccc2)sc1C(=O)Nc1ccccc1,-17,173,114,i,0.81,·,-7
CCCNc1nc(NCC)nc(OC)n1,31,82,95,i,1,-0.9,-8
CCC(CC)NC(=O)COC(=O)c1ccc(OCC(=O)Nc2ccccc2OC)c(OC)c1,2,93,100,i,0.8,-1.9,2
O=C(NC(=O)c1ccccc1)OCC1CCCN2CCCCC12 (stereo unspecified),·,·,101,i,0.97,-3.0,-8
O=C(NCCCN1CCCC1=O)c1csc2ccccc12,19,121,93,i,1.1,-0.7,3
COCCNc1nc2nonc2nc1N1C[C@H]2CC[C@H]1C2,·,·,100,i,1,·,0

Some of these compounds in order of molar mass, low to high.
mol,Insulin prom inh,Insulin prom inh cell count,RGS16-Gao HTS,HSV replic up,HSV replic up primary fold,GALR2 ag,PKD1 kinase inh
COCCNc1nc2nonc2nc1N1C[C@H]2CC[C@H]1C2,·,·,100,i,1,·,0
CC1Cc2ccccc2N1Cc1cc(=O)n2ccsc2n1 (stereo unspecified),-8,55,94,i,1.1,-0.9,-3
COc1cccc(CNC(=O)C(=O)NCCc2ccc(OC)c(OC)c2)c1,-8,73,109,i,0.95,-1.4,-3

Further compounds follow.
mol,Insulin prom inh,Insulin prom inh cell count,RGS16-Gao HTS,HSV replic up,HSV replic up primary fold,GALR2 ag,PKD1 kinase inh
COc1cccc(NC(=O)CSc2nnc(CN3CCOCC3)n2C)c1,21,51,6.3*,i,0.95,-1.3,-3
O=[N+]([O-])c1cc(C(F)(F)F)cc([N+](=O)[O-])c1NCCCNc1ccc([N+](=O)[O-])c2cccnc12,-38,97,102,i,0.9,-1.7,1
S=C(Nc1ccc(Cl)c(Cl)c1)NN1CCOCC1,·,·,104,i,0.95,-0.5,2
CCCn1c(NCc2ccco2)nc2c1c(=O)n(C)c(=O)n2C,·,·,63,i,0.93,-1.7,-8
Cc1ccc(-c2nc(P(=O)(c3ccccc3)c3ccccc3)c(N3CCOCC3)o2)cc1,8,133,108,i,0.76,1.3,1
N/C(Cn1cncn1)=N\NC(=O)C(=O)Nc1ccc(Cl)cc1Cl,·,·,98,i,0.94,·,4

Pulled by structure from the list above (2):
mol,Insulin prom inh,Insulin prom inh cell count,RGS16-Gao HTS,HSV replic up,HSV replic up primary fold,GALR2 ag,PKD1 kinase inh
CC1CCN(S(=O)(=O)c2ccc(N/N=C(/C#N)C(N)=O)cc2)CC1,-23,71,118,i,1.1,-1.3,-3
N#Cc1c(N2C(=O)C3C4C=CC(C4)C3C2=O)sc2c1CCC2 (stereo unspecified),-30,61,102,i,0.81,-1.4,-6

Screens (PubChem)

An unsorted share of the library (roughly 1.1% active in at least one column).
